HPGD block – blocks human HPGD enzyme activity; P15428; purified HPGD, NADH fluorescence kinetic, PGE2 substrate; Potency, µM, inactives show at the highest dose activity change, negative = inhibition, usual class: inhibitors; 150,000 compounds, 4.3% hits; AID 894; active = well fitted inhibition curve with a large enough effect (not every such curve was filed as active); inconclusive = small, poorly fitted or top-dose-only effect, or another doubt; inactive = no such curve, though single readings can be large or run the other way;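 further: top concentration of the series not given in the record; plate controls included wells without enzyme; inactives centre near -10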
Target sequence (P15428 whole entry, looked up): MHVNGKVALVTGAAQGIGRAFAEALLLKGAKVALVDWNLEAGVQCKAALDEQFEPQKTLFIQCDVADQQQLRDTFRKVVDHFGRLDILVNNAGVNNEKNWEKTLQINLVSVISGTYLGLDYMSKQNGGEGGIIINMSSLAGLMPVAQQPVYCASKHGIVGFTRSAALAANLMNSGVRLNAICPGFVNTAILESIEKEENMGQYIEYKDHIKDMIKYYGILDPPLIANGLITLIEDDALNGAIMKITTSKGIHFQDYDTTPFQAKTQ
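20 nM HPGD preincubated 15 min at room temperature with compound in 50 mM Tris-HCl pH 8, 0.01% Tween 20. Started with 1 mM NAD+ and 30 uM prostaglandin E2; NADH fluorescence (360/450 nm) read 5 times over 30-s intervals, last minus first.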
Starred values were filed as active, the others as inactive; ? = inconclusive; & = joins results of further samples. On the % scale 0 is the no-effect control and ±100 the full control effect; potency means the concentration at half of the fitted maximal effect. These rows are one share of the data, so the mix of outcomes need not match the whole.

SMILES	HPGD block
CSc1ccc(S(=O)(=O)Nc2ccc(NC(C)=O)cc2)cc1	-3.4%
Cc1ccc(NC(=O)CCC(=O)N/N=C/c2cccs2)cc1C	-3.2%
O=C(CSc1ccc(Cl)cc1)Nc1cccc(-c2nnc(-c3ccco3)o2)c1	-9.9%
CCOC(=O)Cc1nn(C)c(=O)c2ccccc12	-11.9%
CCc1c(O)c(/C(C)=N\O)c(=O)n(-c2ccccc2)c1-c1ccccc1	-1.5%
C=CCCC(=O)Nc1nc(C)c(-c2csc(Nc3ccc(Cl)cc3Cl)n2)s1	-19.8%
Cc1ccsc1/C=C1\SC(N)=NC1=O	-25.9%
O=[N+]([O-])c1c(Nc2ccccc2)ccc2nonc12	-11.9%
Cc1nc(N)sc1Cc1ccc2c(c1)OCO2	-9.6%
CC(C)NC(=S)NC(=O)c1ccc(Cl)cc1Cl	-12.4%
Cc1cc(NC(=O)C(C)(C)C)no1	-1.4%
O=C(c1ccc(Br)o1)N1CCN(c2ccccc2F)CC1	-7.0%
C[C@@H]1C[C@](C)(C(=O)c2ccc3ccccc3c2)C=C1c1ccc2ccccc2c1	-2.7%
Oc1ccc(/C=N/NC2=NCCCCC2)cc1	?
CN1CCN(C(=O)/C(=C\c2cccs2)NC(=O)c2cccs2)CC1	-13.9%
CC/C=C\C/C=C\C/C=C\C/C=C\C/C=C\CCCC(=O)O	-7.2%
O=C(Cn1nnc2ccccc2c1=O)NCCc1ccc(Cl)cc1Cl	-6.4%
O=C1C(Nc2ccccc2)=C(N2CCCCC2)C(=O)c2ccccc21	-1.3%
CCCCNC(=O)CN1C(=O)NC2NC(=O)NC21 (stereo not given)	-11.0%
Cn1ncc(C#N)c1NC(=O)C1CC(c2ccc(Cl)c(Cl)c2)=NO1 (stereo not given)	-12.4%
COCCN1C(=O)c2oc3ccccc3c(=O)c2C1c1ccc(OC)c(OC)c1 (stereo not given)	-13.9%
COc1cc2c(=O)n(CC3CCCO3)c(=O)n(CC(=O)Nc3cccc(Cl)c3)c2cc1OC (stereo not given)	-26.1%
OC(COc1ccc2ccccc2c1)CN1CCCC1 (stereo not given)	-13.5%
COC(=O)CN(n1cnnc1)S(=O)(=O)c1ccccc1Cl	-10.1%
O=C(Nc1ccccc1)C1CC(=O)N(c2ccc3c4c(cccc24)CC3)C1 (stereo not given)	-14.2%
Oc1c(Br)cc2oc3c(c2c1CNCc1ccccc1)CCCC3	-16.2%
CN=C(Nc1ccc(Cl)cc1)c1ccc(C(F)(F)F)cc1	-6.9%
CCOC(=O)C1CCCN(S(=O)(=O)c2ccccc2)C1 (stereo not given)	0.1%
CC[C@H]1C2=C3C(CC[C@H]4C(OCc5ccc(F)cc5C(F)(F)F)OC[C@](C)([C@@H]34)N(C(=O)OC(C)(C)C)C2)C(COC(C)=O)C1COC(C)=O (stereo not given in full)	-15.4%
CCOC(=O)c1c(C)[nH]c(C=Nc2ccc(OC)cc2)c1O	-19.6%
Cc1cccc(-c2nc(CSCC(=O)N3CCN(Cc4ccc5c(c4)OCO5)CC3)c(C)o2)c1	-26.8%
O=C(OC[C@@H]1CCCN2CCCC[C@H]12)c1cc2ccccc2oc1=O	-15.4%
COCCSc1nnc(NS(=O)(=O)Cc2ccccc2)s1	-10.3%
COc1cc(-c2cc(N3C(=O)Nc4ccccc4N3O)n[nH]2)cc(OC)c1OC	1.2%
CC[N+](C)(C)Cc1ccccc1Br	-6.9%&5.7%&1.9%
CN(CC(=O)NCc1cccc(F)c1)C(=O)c1ccco1	-7.6%
CN(C)CCN(Cc1ccccc1)c1ccccn1	-5.1%&-4.1%
COC(=O)c1[nH]c2cc(OC)ccc2c1NC(=O)CN1CCOCC1	?
CCOC(=O)c1cc(NC(=O)N(C(C)C)C(C)C)c(C)nc1C	-13.7%
O=C(O)CCCNCc1ccccc1F	-4.9%
COc1ccc(/C=C2\NC(=O)C(C=NCc3ccccc3)=C2O)cc1	-6.9%
CCc1nnc(NC(=O)C(CC)c2ccccc2)s1 (stereo not given)	5.6%
CCOC(=O)c1ccc(NC(=O)CN2CCc3ccccc3C2)cc1	-26.4%
COc1ccc(C(C)=O)cc1CSc1nnc2c(Cl)cc(Cl)cn12	-11.0%
CC1CCN(c2nc3ccc(C(=O)N4CCN(Cc5ccccc5)CC4)cc3s2)CC1	14.1µM*
C=CCc1ccccc1OCC(O)Cn1ccnc1C (stereo not given)	-1.6%
CSc1oc(-c2ccco2)nc1S(=O)(=O)c1ccc(Br)cc1	?
CC1(C)Cc2ccccc2-c2nnc(SCC(=O)N3CCN(c4ccccc4)CC3)n21	-10.3%
Cc1ccc(S(=O)(=O)N2CCC(C(=O)OCc3ccc([N+](=O)[O-])cc3)CC2)cc1	-14.1%
CCC1=C2CC[C@H]3C(=O)N(CC)C(=O)[C@H]3[C@H]2[C@@]2(Cc3ccccc3)C(=O)N(Cc3ccccc3)C(=O)N2C1=O	-6.5%
Cc1noc(C)c1S(=O)(=O)N1CCC(C(=O)N(C)Cc2ccccc2)CC1	-10.3%
O=C(c1ccncc1)N1CCC2(CCCN(c3ccccc3)C2)CC1	-9.2%
Cc1ccc(COn2c(-c3ccc(Cl)cc3Cl)nc3ncccc32)cc1	6.6%
C=CCOC(=O)c1sc(NC(=O)c2ccco2)nc1C	?
OC(c1ccc2c(c1)OCO2)c1nccc2ccccc12 (stereo not given)	-0.6%
CCSc1nc(-c2ccccc2)nc(C(Cl)Cl)n1	-0.2%
Cc1nc2c(C(=O)N3CCN(C)CC3)cnn2c(C)c1Cc1ccc(Cl)cc1	?
O=C(CCC1COc2ccccc2O1)N1CCCC1 (stereo not given)	-21.2%
O=C(N/N=C/C=C/c1ccco1)c1cccc([N+](=O)[O-])c1	-11.4%
O=C(CCC(=O)OCC(=O)c1ccccc1)NC1CCCCC1	-16.6%
Further structures:
SMILES	HPGD block
Cc1ccc(-c2nc(-c3ccccc3)no2)c(Cl)c1	39.8µM*
COc1ccccc1Nc1nc(N)nc(CSC(=S)N2CCC(C)CC2)n1	-21.9%
COc1ccc(Br)cc1/C=N/NC(=O)CNC(=O)/C=C/c1ccccc1	-5.3%
N#CC1=C(N)Oc2c(oc(CO)cc2=O)C1c1cccs1 (stereo not given)	-1.0%
Cc1ccc(S/C=C\C(=O)c2ccccc2)cc1	-20.8%
O=C(COc1nc2ccccc2nc1N1CCOCC1)N1CCc2ccccc21	?
COc1ccc(OCC(=O)NNC(=O)C(=O)N2CCCC2)cc1	-7.7%
Cc1ccc2c(c1)CC1(CN2C)C(=O)OC(C)(C)OC1=O	-1.8%
CCOC(=O)CNC(=O)c1cn(CC)c(=O)c2cc(OC)c(OC)cc12	-14.2%
CC(C)C1OC2c3cccc4cccc(c34)C2N1c1ccccc1 (stereo not given)	-6.5%
c1csc(C2Nc3ccccc3-c3nc4ccccc4n32)c1 (stereo not given)	?
COCCn1c(SCC(=O)Nc2cc(C)on2)nnc1-c1ccco1	-6.3%
Cc1cccc2cc(CN(Cc3ccco3)C(=O)c3cccs3)c(=O)[nH]c12	-20.4%
CN(C)c1ccc(/C=C(/C#N)C(=O)NCc2ccccc2)o1	-10.6%
NC(=O)c1ccc(C(F)(F)F)n(Cc2ccc(Cl)cc2)c1=O	-3.1%
CCOc1ccccc1NC(=O)c1ccc2nccnc2c1	-13.2%
O=c1[nH]c2cccc(Cl)c2n(CCNc2ncc(C(F)(F)F)cc2Cl)c1=O	-26.4%
COC(=O)Cn1cnc2ccccc2c1=O	0.5%
Cc1ccc(N2CC(C(=O)NCc3ccccn3)CC2=O)cc1 (stereo not given)	-1.9%
COc1ccc(NC2CS(=O)(=O)CC2NCc2ccco2)cc1 (stereo not given)	-8.6%
O=C(CCN1C(=O)c2ccc([N+](=O)[O-])cc2C1=O)Nc1cccc(O)c1	-4.0%
COc1ccc(-c2nc(C(N)=O)c3[nH]c(=O)n(-c4ccccc4OC)c3n2)c(OC)c1	-26.0%
Cc1ccc2c(c1)N(CCC(=O)NC(C)C)C(=O)CO2	-3.2%
O=C1CN(C(=O)c2cc3ccccc3oc2=O)C(c2ccc(F)cc2)c2cc(F)ccc2N1 (stereo not given)	-23.1%
C=CCn1c(SCC(=O)NCC2CCCO2)nnc1C1CCCCC1 (stereo not given)	-12.1%
CC(=O)Nc1ccc(OC(=O)COc2ccc(Br)cc2)cc1	-3.4%
O=C(COc1nncc2ccccc12)NCCC1=CCCCC1	-9.1%
Cn1nc(C(=O)N2CCOCC2)c([N+](=O)[O-])c1C(=O)N1CCOCC1	-3.8%
COc1cccc(-n2c(SCC(=O)N3c4ccccc4CC3C)nnc2-c2ccco2)c1 (stereo not given)	-29.9%
CC1CC(C)CN(c2ccc([N+](=O)[O-])cc2-c2nn[nH]n2)C1 (stereo not given)	-8.7%
CC(=O)Oc1ccc2ccccc2c1C(NC(=O)C(C)C)c1cccc([N+](=O)[O-])c1 (stereo not given)	-8.7%
CCC(C)(C)C1CCc2c(sc(NC(=O)c3cccs3)c2C(N)=O)C1 (stereo not given)	?
CCOn1c(=O)c(=O)n(OCc2ccccc2)c2ccccc21	-6.8%
CC1=C(C(=O)OC(C)C)C(c2cccs2)N2C(=O)CCSC2=N1 (stereo not given)	-2.6%
Cn1c(O)c(N=NC(=O)Cn2ccc(C(F)(F)F)n2)c2ccccc21	-7.4%
COc1ccc(Cn2cc3c(-c4ccc(F)cc4)nnc-3c3cc(OC)c(OC)cc32)cc1	-24.8%
Cc1ccc(C(c2sc3ncnn3c2O)N2CCC(C)CC2)cc1 (stereo not given)	-14.6%
CCC(=O)Nc1nc2c(OC)ccc(C)c2s1	?
COC(=O)c1cn(NC(=O)c2ccc(OC)c(OC)c2)c(=O)c2ccccc12	?
Cc1onc(-c2ccccc2)c1C(=O)OCC(=O)Nc1ccc2c(c1)OCO2	-7.1%

Entries listed above printed as active in HPGD block.
SMILES	HPGD block
CC1CCN(c2nc3ccc(C(=O)N4CCN(Cc5ccccc5)CC4)cc3s2)CC1	14.1µM*
Cc1ccc(-c2nc(-c3ccccc3)no2)c(Cl)c1	39.8µM*

Next part.
SMILES	HPGD block
CN(CCOC(=O)/C=C/c1ccccc1)C(C)(C)C	-14.2%
O=C(COc1ccc(Cl)cc1Cl)NCCCN1CCOCC1	-2.6%
CCN(CC)CCOCCOc1cc(C)c(Cl)c(C)c1	-0.6%
CCOC(=O)C1CCN(S(=O)(=O)c2cn(C)c(=O)n(C)c2=O)CC1	-15.5%
Cc1ccc(S(=O)(=O)NC2=NCCCCC2)cc1	-7.1%
CSc1ncc(Cl)c(C(=O)Nc2cccc(C)c2)n1	-18.2%
COc1ccc(OC(=O)CCCN2C(=O)c3ccccc3C2=O)cc1	-2.4%
O=C(Nc1cccc2nsnc12)c1cccs1	?
COc1ccc2nc(NC(=O)C3CCN(S(=O)(=O)c4cccnc4)CC3)sc2c1	-5.8%
CC1Cn2c(nnc2-c2cccc(N)c2)S1 (stereo not given)	?
CCC1Oc2ccc(C)cc2N(CC(=O)NCc2cccc(OC)c2)C1=O (stereo not given)	-18.3%
Cc1nc(C)c(CCNC(=O)c2cccc(Cl)c2)s1	-15.3%
CCOC(=O)C(CC)n1cnc2sc3c(c2c1=O)CCC3 (stereo not given)	0.1%
Cc1ccc(CN2C(=O)/C(=C\c3ccc(C(=O)NCc4cccnc4)cc3)Oc3ccccc32)cc1	?
Cc1cccc(N2CCN(C(=O)c3cc4c(=O)n(C)c5ccccc5c4n3C)CC2C)c1 (stereo not given)	-9.8%
O=C(CNC(=O)c1cccc(F)c1)N/N=C/c1ccc(O)c([N+](=O)[O-])c1	-14.3%
O=c1oc2cc(OCc3ccc(C(F)(F)F)cc3)ccc2cc1-c1ccccn1	?
Cc1cc(C)n(C(=O)CNC(=O)c2ccco2)n1	-8.1%
O[C@H]1COC2C1OC[C@@H]2O (stereo not given in full)	-5.0%
Cc1cccc(N2CCN(S(=O)(=O)c3c(C)[nH]c(=O)[nH]c3=O)CC2)c1C	-2.1%

7 structures out of the list, sorted by SMILES length, rising:
SMILES	HPGD block
O[C@H]1COC2C1OC[C@@H]2O (stereo not given in full)	-5.0%
O=C(Nc1cccc2nsnc12)c1cccs1	?
CC1Cn2c(nnc2-c2cccc(N)c2)S1 (stereo not given)	?
Cc1nc(C)c(CCNC(=O)c2cccc(Cl)c2)s1	-15.3%
O=c1oc2cc(OCc3ccc(C(F)(F)F)cc3)ccc2cc1-c1ccccn1	?
COc1ccc2nc(NC(=O)C3CCN(S(=O)(=O)c4cccnc4)CC3)sc2c1	-5.8%
O=C(CNC(=O)c1cccc(F)c1)N/N=C/c1ccc(O)c([N+](=O)[O-])c1	-14.3%

Reformatted with the structure last: four of the compounds above.
HPGD block	Molecule
-18.2%	CSc1ncc(Cl)c(C(=O)Nc2cccc(C)c2)n1
0.1%	CCOC(=O)C(CC)n1cnc2sc3c(c2c1=O)CCC3 (stereo not given)
-14.3%	O=C(CNC(=O)c1cccc(F)c1)N/N=C/c1ccc(O)c([N+](=O)[O-])c1
-7.1%	Cc1ccc(S(=O)(=O)NC2=NCCCCC2)cc1

Other compounds.
SMILES	HPGD block
C=CCn1c(SCC(=O)Nc2c(C)cccc2C)nnc1-c1cnccn1	-12.4%
CCCNC(=O)COC(=O)c1ccc(S(=O)(=O)N2CCCCCC2)cc1	-4.2%
C[C@@H](C(=O)NCc1ccc(S(C)(=O)=O)cc1)[C@@H]1C[C@@]1(C)[C@@H](NC(=O)OCc1ccccc1)c1ccccc1	-13.4%&-17.0%
CCOC(=O)N1CCC(=NNc2ccc(S(=O)(=O)N3CCOCC3)cc2[N+](=O)[O-])CC1	-17.1%
Cc1cc(C(=O)CSc2n[nH]c(-c3ccccc3F)n2)c(C)n1Cc1cccs1	12.6µM*
